Screening results: PubChem BioAssay, National Center for Advancing Translational Sciences (NCATS)
MBNL1 CUG block: blocks human MBNL1 binding to CUG repeat RNA; TR-FRET MBNL1-His/biotin-(CUG)12 binding, 665/545 ratio; Potency, µM (top dose mostly 57.5 µM), without a hit: at the highest dose activity change, negative = inhibition, actives largely listed as inhibitors; 280,000 tested, 0.036% active; active = well fitted inhibition curve with a large enough effect in the signal ratio, with a control signal flat, not every such curve was filed as active; inconclusive = small, poorly fitted or top-dose-only effect, or effect the other way, or a change in a side signal; inactive = no such curve, though single readings can be large or run the other way; the % refers to the signal ratio; note: % is set by controls: 0 for no effect and ±100 for the full control effect
Target sequence (Q9NR56 whole entry, looked up): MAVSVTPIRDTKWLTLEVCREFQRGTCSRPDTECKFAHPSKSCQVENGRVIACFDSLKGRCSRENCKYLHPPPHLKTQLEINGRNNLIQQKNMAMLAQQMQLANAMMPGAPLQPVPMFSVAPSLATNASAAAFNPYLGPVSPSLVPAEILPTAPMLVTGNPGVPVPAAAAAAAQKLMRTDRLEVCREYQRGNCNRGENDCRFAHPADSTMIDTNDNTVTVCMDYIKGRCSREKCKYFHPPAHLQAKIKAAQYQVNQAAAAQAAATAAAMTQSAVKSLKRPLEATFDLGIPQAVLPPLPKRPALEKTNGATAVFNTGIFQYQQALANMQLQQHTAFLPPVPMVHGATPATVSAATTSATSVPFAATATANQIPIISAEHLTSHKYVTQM
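TR-FRET between His-tagged MBNL1 and biotin-(CUG)12 RNA, detected with Tb anti-His antibody (0.055 ng/ul) and streptavidin-XL665 (5 nM), 60 min at room temperature. Compounds titrated 92 nM to 58 uM; 665/545 nm ratio normalized to buffer and complex controls.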
p53 reactivator: re-activators of mutant p53; H1299 p53-A138V BP100-luciferase reporter, luminescence, 24 h; Potency, µM (titrated, usually from 92.2 µM), for the others: at the top dose activity change, positive = activation, usual class: activators; 320,000 tested, 0.063% active; AID 504706; note: % of control where 0% means no effect; nearly all actives have a fitted effect of over 45% in size
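p53-null H1299 cells stably carrying temperature-sensitive p53-A138V and a BP100-luciferase reporter were pinned with compounds (4-point, 1:5 series) and held 24 hrs at 37 deg C. Luminescence was read 10 min after detection reagent.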
Rab9 prom act: activators of Rab9 promoter; Huh7 Rab9 promoter-luciferase reporter, luminescence, 24 h; Potency, µM (titrated, usually from 9.22 µM), inactives show at the top dose activation, negative = inhibition, actives largely listed as activators; 320,000 tested, 2.8% active; note: % of control where 0% means no effect; nearly all actives have a fitted effect of over 60% in size
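Stable Rab9-luc Huh7, 1500 cells/well, 2 h settle; cmpd in DMSO, 24 h, 37 °C/5% CO2; luciferase reagent 10 min RT; luminescence.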
ELG1 genotox: induces genotoxicity in HEK293T cells with luciferase-tagged ELG1; HEK293T ELG1-luciferase reporter, luminescence, 16 h; Potency, µM (titrated, usually from 46 µM), inactives show top-dose activity change, positive = activation, actives largely listed as activators; 330,000 tested, 1.3% active; AID 504466; note: % of control where 0% means no effect; nearly all actives have a fitted effect of over 60% in size
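ELG1-luciferase HEK293T cells, 2,000/well; compound pinned in; 16 hr, 37 °C, 5% CO2; ONE-Glo, 30 min RT; luminescence on CCD imager.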
NPC1 prom act: activators of NPC1 promoter; Huh7 NPC1 promoter luciferase reporter, 24 h; Potency, µM (top dose mostly 9.22 µM), for the others: at the highest dose activation, hits mostly activators; 320,000 tested, 2.4% active; AID 485313;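 note: % of control where 0% means no effect; nearly all actives have a fitted effect of over 60% in size; reporter is driven by a mutant NPC1 promoter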
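In 1536-well qHTS, Huh7 cells harboring an NPC1 promoter–luciferase construct received compound for 24 h; activation was quantified by luminescence following luciferase reagent addition.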
An asterisk follows results filed as active; [ ] = remark or other dose. Unless noted, calls come from the whole dose curve; as a rule, active = well fitted activation curve with a large enough effect; inconclusive = small, poorly fitted or top-dose-only effect; inactive = no such curve, though single readings can be large or run the other way. Potency is the fitted concentration of half-maximal effect.

The opening 4 records as a preview:
How did C[C@]12CCC(=O)C[C@H]1CC[C@@H]1[C@@H]2CC[C@]2(C)[C@@H](O)CC[C@@H]12 do in these assays?
p53 reactivator: -4%; Rab9 prom act: 10%; ELG1 genotox: 0%; NPC1 prom act: -4%

How did CN(C)C(=O)Oc1ccc(OCc2cccc[n+]2C)cc1 do in these assays?
p53 reactivator: 11%; Rab9 prom act: -5%; ELG1 genotox: -2%; NPC1 prom act: 1%

Results for c1ccc2c(c1)[I+]c1ccccc1-2 ?
Rab9 prom act: -41%[inhibitor][46.1 µM]; NPC1 prom act: -32%[inhibitor][46.1 µM]

Results for N[C@@H]1C[C@H]1c1ccccc1 ?
p53 reactivator: 8%; Rab9 prom act: 1%; ELG1 genotox: 2%; NPC1 prom act: 1%

The whole of this part (from the top)
How did C[C@]12CCC(=O)C[C@H]1CC[C@@H]1[C@@H]2CC[C@]2(C)[C@@H](O)CC[C@@H]12 do in these assays?
p53 reactivator: -4%; Rab9 prom act: 10%; ELG1 genotox: 0%; NPC1 prom act: -4%

How did CN(C)C(=O)Oc1ccc(OCc2cccc[n+]2C)cc1 do in these assays?
p53 reactivator: 11%; Rab9 prom act: -5%; ELG1 genotox: -2%; NPC1 prom act: 1%

Results for c1ccc2c(c1)[I+]c1ccccc1-2 ?
Rab9 prom act: -41%[inhibitor][46.1 µM]; NPC1 prom act: -32%[inhibitor][46.1 µM]

Results for N[C@@H]1C[C@H]1c1ccccc1 ?
p53 reactivator: 8%; Rab9 prom act: 1%; ELG1 genotox: 2%; NPC1 prom act: 1%

Results for Nc1c2c(nc3sc4c(c13)CCCC4)CCCC2 ?
MBNL1 CUG block: -5%; p53 reactivator: 7%; Rab9 prom act: inconclusive; ELG1 genotox: -9%; NPC1 prom act: 25%

Results for C[C@]12CCC(=O)C[C@@H]1CC[C@@H]1[C@@H]2CC[C@]2(C)[C@@H](O)CC[C@@H]12 ?
p53 reactivator: -12%; ELG1 genotox: 1%

How did O=C(Oc1ccc2ccccc2c1Cl)N1CCCC1 do in these assays?
MBNL1 CUG block: 2%; p53 reactivator: inconclusive; Rab9 prom act: 2µM*; ELG1 genotox: 2.1µM*; NPC1 prom act: 2.8µM*

What do the screens show for `Fc1ccc(C2N3CCCN23)cc1` (stereo unspecified)?
MBNL1 CUG block: -2%; p53 reactivator: -2%; Rab9 prom act: 3%; ELG1 genotox: -1%; NPC1 prom act: 3%

Reprinted at random: two compounds from above.
What do the screens show for `Fc1ccc(C2N3CCCN23)cc1` (stereo unspecified)?
MBNL1 CUG block: -2%; p53 reactivator: -2%; Rab9 prom act: 3%; ELG1 genotox: -1%; NPC1 prom act: 3%

How did C[C@]12CCC(=O)C[C@H]1CC[C@@H]1[C@@H]2CC[C@]2(C)[C@@H](O)CC[C@@H]12 do in these assays?
p53 reactivator: -4%; Rab9 prom act: 10%; ELG1 genotox: 0%; NPC1 prom act: -4%

Only part of the results is shown, so the mix of outcomes need not match the whole.
